OX1R antagonist – antagonists of human orexin 1 receptor; O43613; CHO/OX1R cells, Fluo-8 calcium fluorescence, orexin A; inhibition, % at 5 µM; 330,000 compounds, 0.43% hits;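 active means inhibition above its plate's threshold, mean inhibition of all tested compounds on the plate plus 3 SD, cut at about 37% in these data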;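 further: 0% = orexin A challenge wells and 100% = SB-334867-A antagonist wells; not every result past the cut was called active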
Target sequence (O43613 whole entry, looked up): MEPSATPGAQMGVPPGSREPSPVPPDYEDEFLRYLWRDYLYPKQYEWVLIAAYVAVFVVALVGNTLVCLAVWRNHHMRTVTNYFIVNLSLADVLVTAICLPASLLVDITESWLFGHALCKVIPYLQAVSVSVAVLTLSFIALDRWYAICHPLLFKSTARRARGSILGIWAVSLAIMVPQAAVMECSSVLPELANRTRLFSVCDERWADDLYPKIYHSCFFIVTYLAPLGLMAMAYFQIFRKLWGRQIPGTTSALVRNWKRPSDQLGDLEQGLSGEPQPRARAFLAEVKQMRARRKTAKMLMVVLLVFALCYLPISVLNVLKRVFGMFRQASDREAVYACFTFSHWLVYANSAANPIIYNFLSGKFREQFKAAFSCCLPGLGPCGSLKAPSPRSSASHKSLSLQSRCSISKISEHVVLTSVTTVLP
Active calls of the source: *; & = joins results of further samples. This is a subset; most or all hits stand in other tables.

Structure	OX1R antagonist
Cn1c(Cn2c(=O)sc3ccccc32)nnc1SCC(=O)Nc1ccc(Cl)cc1	-10
Cc1ccc(N(CC(=O)N/N=C/c2cccc(Br)c2)S(C)(=O)=O)cc1	-27
COc1cccc(CCNC(=O)CCCC(=O)c2ccccc2)c1	-13
Cc1ccc(NC(=O)C2(c3ccc([N+](=O)[O-])cc3)CCCC2)cc1	-25
O=C(O)/C(=C\c1cccc([N+](=O)[O-])c1)c1ccc(S(=O)(=O)N2CCCCC2)s1	-17
CCOc1ccc(N2C(=O)CC(SC(=NC)Nc3ccc4c(c3)OCO4)C2=O)cc1 (configuration not stated)	-1
CC1C(=O)Nc2ccc(S(=O)(=O)N3CCN(c4ccccc4F)CC3)cc2NC1=O (configuration not stated)	-15
C/C(=N/NC(=O)c1ccc(C)s1)c1cccc(NC(=O)COc2ccc(Cl)cc2C)c1	-31
COCCNC(C)C(=O)Nc1ccc(Br)cc1 (configuration not stated)	6
O=C(Cc1ccc(-n2c(=O)c3ccccc3n(Cc3ccccc3Cl)c2=O)cc1)NCC1CCCO1 (configuration not stated)	-17
Cc1ccc(C(=O)N/C(=C\c2ccc(Cl)cc2)C(=O)NCCN2CCOCC2)cc1	-14
O=C(NC1CCS(=O)(=O)C1)C1CCCC1 (configuration not stated)	0
COC(=O)c1ccc(-n2c(CCC(=O)O)ccc2-c2ccc(C)cc2)cc1	-20
Cc1nc2ccccc2n1CC(=O)NCc1ccccc1	2
CCOC(=O)CN(C)Cc1c[nH]c2ccccc12	-7
CCOc1ccccc1N(C(=O)CNC(=O)c1ccco1)C(C(=O)NC1CCCC1)c1cccnc1 (configuration not stated)	-13
CCc1cc2c(=O)[nH]cnc2s1	-1
Cc1ccc(CNC(=O)C2CC=CCC2C(=O)O)cc1 (configuration not stated)	-6
Cc1cccc([C@@H]2[C@@H]3C(=O)N(Cc4ccccc4)C(=O)[C@@H]3[C@]3(Cc4ccc(Cl)cc4)C(=O)N(c4ccccc4)C(=O)N23)c1	-17
Cc1c(Nc2nc(C(F)(F)F)nc3ccccc23)c(=O)n(-c2ccccc2)n1C	-10
Cc1nc2c(o1)CCc1ccccc1C2N1CCN(C)CC1 (configuration not stated)	-11&-6
Cc1cc(/C=C(/C#N)c2nc3ccccc3[nH]2)c(C)n1-c1ccccc1C(=O)O	-12
O=C(NCc1nc2ccccc2[nH]1)c1ccc(S(=O)(=O)N2CCOCC2)cc1	1
COc1cc2ccccc2cc1C(=O)Nc1ccc(NC(=O)c2cccs2)cc1	-14
Cc1ccc(N(CC(=O)NCC2CCCO2)C(=O)CCC(=O)Nc2nccs2)cc1C (configuration not stated)	-19
COc1ccc(NC(=O)CN(C)C(=O)CSCc2c(C)noc2C)cc1	-15
C/C(=N/OCO/N=C(\C)c1ccccc1)c1ccccc1	-20
CCn1c(=O)c2ccccc2n(Cc2ccc([N+](=O)[O-])cc2)c1=O	-19
CC(Sc1nccn1C)C(=O)Nc1ccccc1 (configuration not stated)	2
COc1ccc(C(=O)COC(=O)CCNS(=O)(=O)c2ccc(NC(C)=O)cc2)c(OC)c1	-12
O=C(NC1=NCCS1)c1cccc(F)c1	-11
Cc1ccc(-c2nn(-c3ccc(F)cc3)cc2C(=O)NCC(c2cccs2)N2CCOCC2)cc1 (configuration not stated)	-29
O=C(O)C1C2CCC(O2)C1C(=O)NCc1ccc(Cl)cc1 (configuration not stated)	-4
O=c1cc(O)c(-c2ccccc2Cl)c(Cl)[nH]1	2
CCOC(=O)C(=O)N/N=C/c1cccc(Br)c1	-5
CCOC(=O)[C@@H]1[C@H]2COc3cc(OC)ccc3[C@@H]2N2C(=O)N(c3ccc(Cl)cc3)C(=O)[C@]12C	-35
CC(=O)Nc1cccc(OCCCNS(=O)(=O)c2ccc(C#N)cc2)c1	-12
Cc1cc(OCC(=O)Nc2ccc(S(=O)(=O)N3CCN(C)CC3)cc2)ccc1Cl	-6
Cc1nc(SCC(=O)NC2CCCC2)[nH]c(=O)c1C	-14
COc1ccc(C(=O)Nc2cccc(OC(=O)c3ccc(C)c(C)c3)c2)cc1	-30
O=C(CCC(=O)N1CCOc2ccc(Cl)cc21)NCCCN1CCN(Cc2ccccc2)CC1	-20
CCC(=O)c1coc2ccc(O)cc12	2
O=C(O)CC/C(=N\NC(=O)CNC(=O)c1cccc(Cl)c1)c1ccccc1	-18
O=S(=O)(CC12C3C4C5C1C2C(Br)(C43)C51OCCO1)c1ccccc1 (configuration not stated)	-13
CCc1cccc(OCC(=O)Nc2c[nH]c(=O)[nH]c2=O)c1	2
Cc1ccc2oc(C(=O)N(C)Cc3ccc(C)o3)c(C)c2c1	-15
Cc1nc2ccc(F)cc2cc1C(=O)Nc1cccc(Cl)c1C	-11
Cc1cc(C)cc(OC(C)C(=O)Nc2ccccc2C(=O)NCc2cccnc2)c1 (configuration not stated)	-30
Cc1c(NC(=O)OCCNC(=O)COc2c(Cl)cccc2Cl)sc(=S)n1C	-28
O=C(OCc1ccccc1)c1cccc(-c2nnc(-c3ccccc3)o2)c1	-29

Shown with each value named: entries from further up
O=C(CCC(=O)N1CCOc2ccc(Cl)cc21)NCCCN1CCN(Cc2ccccc2)CC1
  OX1R antagonist = -20
CCOC(=O)C(=O)N/N=C/c1cccc(Br)c1
  OX1R antagonist = -5
CCc1cccc(OCC(=O)Nc2c[nH]c(=O)[nH]c2=O)c1
  OX1R antagonist = 2
CC(=O)Nc1cccc(OCCCNS(=O)(=O)c2ccc(C#N)cc2)c1
  OX1R antagonist = -12

Further structures.
Structure	OX1R antagonist
COc1ccccc1N1CCN(CCN2C(=O)C3CCCN3C2=O)CC1 (configuration not stated)	-5
NNC(=O)c1ccccc1OCc1ccccc1	-31
CCNC(=O)CSc1nc2sccc2c(=O)n1-c1ccccc1	-13
CSCCC1NC2(C(=O)Nc3c(C)cc(Cl)cc32)[C@@H]2C(=O)N(C3CCCC3)C(=O)[C@H]12 (some centres not stated)	-24
Cc1ccc(NC(=O)CSc2cn[nH]n2)cc1	9
Cc1onc(-c2ccccc2)c1C(=O)N1CCN(c2ncccn2)CC1	-2
CCOC(=O)C1CCN(S(=O)(=O)c2ccc3[nH]c(=O)c(=O)[nH]c3c2)CC1	-14
NC(=O)CC(NC(=O)Cc1cccc2ccccc12)c1ccc(N2CCC(Cc3ccccc3)CC2)c([N+](=O)[O-])c1 (configuration not stated)	-17
O=C(NC(n1ccc(=O)[nH]c1=O)C(Cl)(Cl)Cl)C12CC3CC(CC(C3)C1)C2 (configuration not stated)	-4
CC(=O)Nc1ccc(OC(F)(F)C(F)F)c(NC(C)=O)c1	0
COC(=O)Nc1ccc2ncn(C)c(=O)c2c1	1
COc1ccc2cc(C(=O)NCc3ccccc3)c(=Nc3ccc(C(=O)O)cc3)oc2c1	6
O=C(NCc1ccccc1F)C1CCCN1C(=O)Nc1ccc(F)cc1 (configuration not stated)	-19
COc1cccc(/C=C2\SC(=O)N(CC(=O)NC3CCS(=O)(=O)C3)C2=O)c1 (configuration not stated)	-26
CC1CCCCC1NCc1cccc([N+](=O)[O-])c1 (configuration not stated)	-4
CC(C)(C)C(=O)Nc1nc(C2CCCN2S(=O)(=O)c2ccc(Cl)cc2)cs1 (configuration not stated)	-13
CCOC(=O)c1cccnc1SC(CC)C(=O)NCc1ccco1 (configuration not stated)	-10
CC(=O)N1CCC(C(=O)NC2CC(C)(C)Cc3c2cnn3-c2ccc(F)cc2)CC1 (configuration not stated)	-12
N#CCOC(=O)c1c2c(nc3ccccc13)CCC2	-40
CCC(C)NC(=O)Cn1cccc1C(=O)c1ccccc1 (configuration not stated)	-17
O=c1c2ccsc2ncn1Cc1ccccc1F	-34
Nc1c(Cl)cc(-c2csc(N3CCCC3c3nc4cc(Cl)c(N5CCCCC5)cc4n3CCOCCO)n2)cc1Cl (configuration not stated)	-14
COc1ccc(NC(=O)c2ccccc2NC(=O)COc2ccccc2)cc1	-14
Cc1ccccc1C(=O)NC(=S)NCC1CCCO1 (configuration not stated)	-8
O=C(COC(=O)c1cccs1)Nc1cccc(S(=O)(=O)NC2=NCCCCC2)c1	-24
COc1ccc(NC(=O)c2ccc(S(=O)(=O)NCc3cccnc3)cc2)cc1	-1
CCN1CCCC1CNC(=O)c1ccc(N2CCCC2=O)cc1 (configuration not stated)	-5
CCOc1ccc(C(=O)NCC(=O)OCC(=O)N2CCCC2)cc1	-14
O=C(CSc1nnc(COc2ccccc2)n1-c1ccccc1)c1ccccc1	-24
CCCOc1ccc(-c2cnc(SCC(N)=O)nc2N)cc1	-12
Cc1ccnc(NC(=O)c2cccc(S(=O)(=O)N3CCN(c4ccc(F)cc4)CC3)c2)c1	-9
O=C(c1cccs1)N1CCN=C1SCc1cccnc1	-11
COc1ccc(-n2c(COc3ccc(C)cc3)nnc2SCC(N)=O)cc1	-14
O=c1[nH]n(-c2ncnc3c2cnn3-c2ccccc2)c(=O)c2ccccc12	-17
N#Cc1c(-c2cccc(F)c2)cc(-c2ccccc2)nc1Br	-15
C=CCC(C)(NCc1ccccc1)c1ccccc1 (configuration not stated)	-12
O=C1CC(c2ccco2)CC(O)=C1C=NCC1CCNCC1 (configuration not stated)	-14
Cc1occc1C(=O)Nc1ccc(Br)cc1F	-20
CCN(CC)S(=O)(=O)c1cc(NC(=O)Cc2ccsc2)ccc1C	-4
COc1ccc(C(CNC(=O)COc2ccccc2C#N)N2CCOCC2)cc1 (configuration not stated)	-27
Cc1ccnc(NS(=O)(=O)c2ccc(NC(=O)C34CC5CC(C)(CC(C)(C5)C3)C4)cc2)n1	-16
COc1ccc(CC(=O)NNC(=S)NCC2CC2)cc1OC	-13
Cc1cc2oc(=O)cc(CN(C)Cc3ccccc3F)c2cc1Cl	-29
Cc1ccc(C(=O)N2CCC(C(=O)c3ccc(Cl)cc3)CC2)cc1	-21
COc1cc(CNc2ncn[nH]2)cc(Br)c1OC	1
CN=c1scc(C)n1/N=C/c1ccc2c(c1)OCO2	-13
CC(=O)NCCC(=O)Nc1cc(S(=O)(=O)Nc2ccc(Cl)cc2)ccc1N1CCCC1	-22
Cc1cc(NC(=O)c2cc(-c3cccs3)on2)nn1Cc1ccc(Cl)cc1	-15
COC(=O)c1cc(S(=O)(=O)N(C)C2CCCCC2)cn1C	-28
CCN(CC)C(=S)Nc1c(C)n(C)n(-c2ccccc2)c1=O	-12

The results go on:
SMILES	OX1R antagonist
CC1(C)O[C@@H]1COc1c2ccoc2cc2oc(=O)ccc12	-5
O=C(COC(=O)c1sc2ccccc2c1Cl)NC1CCCCC1	-25
Cc1ccccc1C(=O)NC1CCN(CC(=O)Nc2ccc3c(c2)OCCO3)CC1	-16
O=C1c2ccccc2CN1CCNC(=S)NC1CCCCC1	-27
Cc1cccc(N2CC(O)=C(c3nc4ccccc4n3C)C2=N)c1	1
CC(C)(C)S(=O)(=O)c1cnc(N2CCCCC2)nc1N	-8
O=C(CSc1nnc(COc2ccccc2)o1)Nc1nccs1	1
O=C(O)c1ccn(COc2ccc(Br)cc2)n1	-6
COC(=O)c1cc(S(=O)(=O)NCc2ccccc2)c[nH]1	-9
COc1ccc2c(c1)C(=O)CC(O)(C(F)F)O2 (configuration not stated)	-10
O=C(Oc1ccc(C(=S)N2CCOCC2)cc1)c1cc([N+](=O)[O-])cc([N+](=O)[O-])c1	-7
N#CCCN(Cc1cccnc1)C(=O)Nc1cccc(Cl)c1	-6

Quoted from the listing:
O=C(COC(=O)c1sc2ccccc2c1Cl)NC1CCCCC1 | OX1R antagonist: -25
CCC(=O)c1coc2ccc(O)cc12 | OX1R antagonist: 2
O=C(NC(n1ccc(=O)[nH]c1=O)C(Cl)(Cl)Cl)C12CC3CC(CC(C3)C1)C2 (configuration not stated) | OX1R antagonist: -4
Cc1cc(/C=C(/C#N)c2nc3ccccc3[nH]2)c(C)n1-c1ccccc1C(=O)O | OX1R antagonist: -12

Reformatted: results already given.
compound: O=C(COC(=O)c1sc2ccccc2c1Cl)NC1CCCCC1
  OX1R antagonist = -25

compound: N#CCCN(Cc1cccnc1)C(=O)Nc1cccc(Cl)c1
  OX1R antagonist = -6

(next part)
SMILES	OX1R antagonist
Cc1c(NC(=O)/C(C#N)=C/c2c(N3CCCCC3)nc3ccccn3c2=O)c(=O)n(-c2ccccc2)n1C	-10
Clc1ccc(-n2nnc(-c3cccnc3)n2)cc1Cl	-9
COc1ccc(C(=O)C2CCCN(C(=O)c3ccc4nccnc4c3)C2)c(C)c1 (configuration not stated)	-30
COc1ccc(C2=CC3=C(Br)C(=O)C(C)(OC(=O)C4CCCC4)C(=O)C3=CO2)cc1 (configuration not stated)	-13
CC(C)c1nnc(NC(=O)CN(C)S(=O)(=O)c2ccc3c(c2)OCCO3)s1	-17
Oc1c(C(c2ccccn2)N2CCCCC2)cc(Cl)c2cccnc12 (configuration not stated)	-21
CC(C)CNc1ncnc2c1sc1nc(N3CCOCC3)c3c(c12)CC(C)(C)OC3	-26
CCC1CCCCN1CCCNC(=O)Cn1ncn2nc(-c3ccc(OC)cc3)cc2c1=O (configuration not stated)	-14
CC1CN(C(=O)c2ccc3c(c2)OCO3)CC(C)O1 (configuration not stated)	-9
COC(=O)C(C)Sc1nc2c(c(-c3ccc(OC)cc3)c1C#N)-c1ccccc1C2=O (configuration not stated)	-27
O=C(CNC(=O)c1ccc(S(=O)(=O)N2CCCC2)cc1)N/N=C/c1ccccc1Cl	-13
CCOc1ccccc1C1CC(=O)Nc2cc3c(cc21)OCO3 (configuration not stated)	-7
C=CCn1c(=O)c2ccccc2n2c(SCC(=O)c3ccccc3)nnc12	-29
CCOCCCNC(=O)C1CC(=O)N(CCc2ccc(C)cc2)C1 (configuration not stated)	-10
CCn1c(=O)[nH]c(=O)c2c(N)c(C(=O)c3ccccc3OC)sc21	-17

Three compounds from above, ordered by the number in OX1R antagonist, ascending.
SMILES	OX1R antagonist
C=CCn1c(=O)c2ccccc2n2c(SCC(=O)c3ccccc3)nnc12	-29
CCn1c(=O)[nH]c(=O)c2c(N)c(C(=O)c3ccccc3OC)sc21	-17
CC1CN(C(=O)c2ccc3c(c2)OCO3)CC(C)O1 (configuration not stated)	-9
